# Compound activity as filed in PubChem BioAssay.
# eIF4H inh – inhibitors of RNA binding by human eIF4H | Q15056 | eIF4H fluorescence polarization binding assay | inhibition, % at 35 µM | 290,000 compounds, 0.94% hits;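 active = 50% or more with normal probe brightness, or confirmed in later tests; inconclusive = above 50% with abnormal brightness, or retests that disagree; inactive = below 50% or failed in later tests; about a fifth of its hits are not listed in these tables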;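 note: calls also rest on retests at 20 µM and on dose response follow-up; 0% = protein and probe with vehicle and 100% = probe without protein; strong numbers were not always called active; many hits fall short of the cut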
# PABP polyA inh – PABP-poly(A) binding inhibition; P11940; PABP-poly(A) RNA binding, fluorescence polarization; AID 2014; inhibition, % at 35 µM; 290,000 compounds, 1% hits;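 active = 50% or more with normal probe brightness, or confirmed in later tests; inconclusive = above 50% with abnormal brightness, or retests that disagree; inactive = below 50% or failed in later tests; about a fifth of its hits are not listed in these tables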;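 note: calls also rest on retests at 20 µM and on dose response follow-up; controls were probe without protein and protein plus probe with vehicle; some compounds called inactive have numbers as strong as hits; many hits fall short of the cut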
# CSC inhib – blocks cancer stem cells; cancer stem cell-like cells viability, luminescence; inhibition, % at 7.5 µM; 300,000 compounds, 1.1% hits; AID 2717;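 active = mean at 75% or more and at least half the replicates too; inconclusive = mean and replicates disagree; tested in HMLE shEcad cells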;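 note: 0% = median of negative and 100% = median of positive control wells; the first replicate is given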
# Env fusion inh – blocks HIV Env-driven cell-cell fusion | HeLa-JRFL Env/CEM21 cell fusion, luciferase | 360,000 compounds, 1.1% hits | AID 651610 | inhibition, % at 12.3 µM;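 active = mean replicate inhibition score of at least 50 and every replicate individually at or above 50; inconclusive = only one of the two criteria met; inactive = mean below 50 and not all replicates reaching 50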;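 note: 0% = plate neutral controls and 100% = maraviroc near 300 nM; one replicate is shown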
# MT1-MMP act inh – inhibitors of human MT1-MMP activation. P50281. HT1080 RFP-PRO-GFP cells, GFP/RFP ratio fluorescence, overnight; percent of plate control window, DMSO zero. GFP/RFP ratio change, % at 20 µM. 360,000 compounds, 0.061% hits;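 active = GFP/RFP ratio change of at least 30% with cell ATP level not reduced by more than half and red fluorescence within 50% of control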; note: strong numbers were not always called active
#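 Assay system: RFP-PRO-GFP reporter HT1080 cells; read-out basis: GFP/RFP fluorescence ratio; benchmarks: DMSO wells and RFP-L50D-GFP cells; doses: 20 µM single dose, 1% DMSO; schedule: overnight cell settling, then overnight compound exposure, 37 °C, 5% CO2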
# Rce1 inhib – inhibitors of yeast Ras-converting enzyme; Q03530; yeast membranes, quenched prenylated peptide cleavage fluorescence; calls only; 290,000 compounds, 0.27% hits; AID 2563;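 active = fall in fluorescence gain of 50% or more versus controls, with final raw signal at or below 3038400; inconclusive = same 50% fall but final raw signal above 3038400; inactive = fall in fluorescence gain under 50%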;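 note: plate controls were neutral control wells for no effect and wells lacking membranes for full effect; tested at 10 µM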
# Target sequence (Q03530 whole entry, looked up): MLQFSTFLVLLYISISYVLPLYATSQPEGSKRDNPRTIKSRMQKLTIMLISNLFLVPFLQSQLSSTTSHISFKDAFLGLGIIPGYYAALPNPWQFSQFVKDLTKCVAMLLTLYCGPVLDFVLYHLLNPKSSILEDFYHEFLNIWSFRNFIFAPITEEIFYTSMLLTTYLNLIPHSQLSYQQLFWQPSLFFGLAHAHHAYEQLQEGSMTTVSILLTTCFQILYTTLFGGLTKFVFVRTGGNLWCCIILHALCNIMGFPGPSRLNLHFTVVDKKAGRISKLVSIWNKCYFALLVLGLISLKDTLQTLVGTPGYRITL
# UUG fidelity – alters start codon recognition fidelity in yeast. S. cerevisiae UUG-firefly luciferase reporter, luminescence/redox ratio. activity score, % at 18.7 µM. 350,000 compounds, 0.13% hits;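 active = replicate mean at a twofold rise or more, about +100% in these data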;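 note: firefly luciferase made from a UUG start codon reports start codon fidelity; reporter light over untreated wells divided by growth signal over untreated wells; some hits fall short of that in this replicate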
# eIF4H inh retest – recorded beside eIF4H inh, whose call it bears; inhibition, %; compound at 20 µM; confirmation average;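 mean of two retest wells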
# PABP polyA inh retest – recorded beside PABP polyA inh, whose call it bears; inhibition, %; compound at 20 µM; confirmation repeats;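 mean of two retest wells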
# MT1-MMP act inh RFP – second read-out of MT1-MMP act inh, no call of its own (marks repeat the call); RFP signal change, %; measured here: RFP expression control read;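 0 = vehicle wells; hits needed this value within 50% of zero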
# * = called active by the depositor; i = inactive; ? = inconclusive; nt = no result given; + = active, no number; & = joins results of further samples.
SMILES,eIF4H inh,PABP polyA inh,CSC inhib,Env fusion inh,MT1-MMP act inh,MT1-MMP act inh RFP,Rce1 inhib,UUG fidelity,others
CCS(=O)(=O)Nc1cccc(C2=NN(S(=O)(=O)c3ccc(F)cc3)C(c3cccs3)C2)c1 (stereo not drawn),4,10,-3,33,-6,-6,i,nt,
O=S(=O)(c1ccc(N2CCOCC2)c(Cl)c1)N1CCOCC1,-4,0,-2,1,2,3,i,5,
COc1ccc(CC(=O)Nc2ncc([N+](=O)[O-])s2)cc1OC,2,6,6,14,3,6,i,-14,
COC(=O)C1=CN(CC2CCCO2)C=C(C(=O)OC)C1c1ccccc1C(F)(F)F (stereo not drawn),12,6,6,27,7,11,nt,-2,
Cc1nn(CC(=O)N(C)Cc2ccc(F)cc2)c(C)c1[N+](=O)[O-],-10,7,-7,5,2,1,i,nt,
CC(C)=NOc1nc(NC(=O)NS(=O)(=O)c2ccccc2Cl)nc(N(C)C)n1,nt,nt,-8,-6,-11,0,i,-28,
CN1CCc2nc3ccc(Cl)cc3c(-c3ccccc3Cl)c2C1,5,-4,5,-7,-13,-9,i,nt,
CC1CCN(C(=O)COc2cccc3c2CCN(C)C3=O)CC1,3,-5,-9,-9,9,5,i,nt,
C/C(=N/NC(=O)c1ccccc1O)c1ccc(N2C(=O)C3CCCCC3C2=O)cc1 (stereo not drawn),-3,-4,-14,-79,0,6,i,-15,
COc1ccc(C(=O)N2CCCC(CCC(=O)NCc3ccc(F)c(F)c3)C2)o1 (stereo not drawn),-15,16,-16,-1,0,1,i,-3,
O=C1CCN(Cc2ccccc2)CCN1[C@H](CO)Cc1ccccc1,-8,-1,-7,0,7,2,i,-16,
Cc1nn(CC(=O)N2CCN(c3ccccc3)CC2)c(=O)c2cccn12,-3,4,4,0,5,8,i,-11,
CCOC(=O)N1CCN(C(=O)C2CCC(CNS(=O)(=O)c3ccc(Cl)cc3)CC2)CC1 (stereo not drawn),-2,4,-19,nt,4,-2,i,6,
Cc1cccnc1C(NC(=O)C1CCN(Cc2ccccc2)CC1)c1ccc(F)cc1 (stereo not drawn),nt,nt,nt,-19,0,2,nt,-19,
CCOc1ccc(N(C(=O)/C=C/C(=O)Nc2cc(C)on2)C(C(=O)NC2CCCC2)c2ccccc2C)cc1 (stereo not drawn),2,-1,nt,nt,-3,-18,i,5,
O=C(O)/C=C/C(=O)NCCNc1ncc(C(F)(F)F)cc1Cl,7,-4,-3,-8,-2,5,i,nt,
COc1cccc(C(=O)NCCS(=O)(=O)NCc2ccccn2)c1,nt,nt,-7,0,1,2,i,nt,
CC1=C(c2ccc(F)cc2)[N+](=O)C(C)(C)N1[O-],-1,-6,6,10,-2,4,i,nt,
CC(C)n1c(CSCc2ccc(Cl)cc2Cl)n[nH]c1=S,18,14,18,14,-11,-12,i,nt,
C=Cc1ncc(OC)c2c1[nH]c1ccccc12,nt,nt,40,nt,-13,-23,i,-20,
O=C(O)C1CCN(S(=O)(=O)c2ccc3[nH]ccc3c2)CC1,nt,nt,nt,4,2,2,nt,5,
CN(C)c1ccc(CNC2C3CC4CC(C3)CC2C4)cc1 (stereo not drawn),2,6,13,17,2,7,i,-10,
CCOc1ccccc1NS(=O)(=O)c1cc2c3c(c1)C(C)C(=O)N3CCC2 (stereo not drawn),nt,nt,-4,-3,2,1,i,2,
Cc1c(CNC(=O)c2cnn3c2NC(c2ccccc2)CC3C(F)(F)F)cnn1C (stereo not drawn),-9,0,-21,nt,1,1,i,-12,
O=C(Nc1ccc2oc(-c3ccccc3F)nc2c1)c1ccccc1F,-4,9,22,-100,3,-4,i,-14,
O=C(Nc1ccc2c(c1)C(=O)NC2=O)c1ccccc1,-6,-9,-13,-22,1,5,i,0,
CCCn1c(SCC(=O)N2CCCc3ccccc32)nnc1-c1ccco1,-12,5,nt,nt,-10,-5,i,-19,
Cc1cccc(S(=O)(=O)N(C)C[C@H]2OCc3cn(nn3)CCCC(=O)N([C@H](C)CO)C[C@@H]2C)c1,nt,nt,nt,-41,1,6,nt,-1&4&-6,
CCCN(/C=N/c1sc2c(c1C#N)CCCCC2)CCC,7,13,-4,-16,-12,-11,i,-17,
COc1ccc(C)cc1S(=O)(=O)N1CCCC(C(=O)N2CCOCC2)C1 (stereo not drawn),2,-4,-11,3,-2,2,i,-2,
CN(CC(=O)Nc1cccc(F)c1)C(=O)CCCNC(=O)c1ccc(Cl)cc1,nt,nt,0,-12,0,-1,i,-28,
NS(=O)(=O)c1cccc(NC(=O)CCSc2ccccc2Cl)c1,-11,57,-1,nt,9,-5,i,1,eIF4H inh retest=-2;PABP polyA inh retest=2
Cc1ccccc1/C=C/C(=O)N1CCOCC1,6,0,-1,-13,2,3,i,-13,
COc1cccc(CN(C(=O)/C=C/c2ccco2)C2CCS(=O)(=O)C2)c1 (stereo not drawn),5,0,-5,-4,-3,5,i,6,
Cc1ccc(C(=O)NCCn2cc(SCC(=O)Nc3cc(C)on3)c3ccccc32)cc1,-4,5,4,-5,2,-4,i,-39,
O=C(CN1C(=O)/C(=C/c2cccc(Br)c2)SC1=S)NCCCN1CCOCC1,-8,11,1,29,-1,5,i,-15,
COc1cc(NC(=S)NCCCN2CCOCC2)cc(OC)c1,-9,2,-2,10,-1,4,i,nt,
Cc1cc(C)cc(N(C(=O)c2cccs2)C2C=CS(=O)(=O)C2)c1 (stereo not drawn),0,6,-10,-8,0,-2,i,nt,
CCCCc1ccc(-c2csc(/C(C#N)=C\c3ccc(C)o3)n2)cc1,26,5,13,nt,-23,17,i,-3,
O=CN1CCCN(Cc2nc(-c3cccc(Cl)c3)no2)CC1,-2,-4,-5,-16,1,1,i,nt,

# In the list so far, 2 have a cyano group:
SMILES,eIF4H inh,PABP polyA inh,CSC inhib,Env fusion inh,MT1-MMP act inh,MT1-MMP act inh RFP,Rce1 inhib,UUG fidelity,others
CCCN(/C=N/c1sc2c(c1C#N)CCCCC2)CCC,7,13,-4,-16,-12,-11,i,-17,
CCCCc1ccc(-c2csc(/C(C#N)=C\c3ccc(C)o3)n2)cc1,26,5,13,nt,-23,17,i,-3,

# Continued.
SMILES,eIF4H inh,PABP polyA inh,CSC inhib,Env fusion inh,MT1-MMP act inh,MT1-MMP act inh RFP,Rce1 inhib,UUG fidelity,others
Nc1ccc(N2CCN(c3ccc(Cl)c(Cl)c3)CC2)cc1,-7,-4,92*,nt,12,-9,i,nt,
COc1ccc(NC(=O)C2CCCN(S(=O)(=O)c3ccc4[nH]c(=O)ccc4c3)C2)cc1 (stereo not drawn),-3,6,-11,-7,0,0,i,-14,
NS(=O)(=O)c1cccc(NC(=O)CCS(=O)(=O)c2ccc(Cl)cc2)c1,13,-9,-13,-32,9,10,i,-12,
O=C(Nc1ccon1)c1ccc(Br)o1,-5,18,-12,nt,-1,0,i,-4,
O=[N+]([O-])c1cc(C(F)(F)F)ccc1NC1CCN(Cc2ccccc2)CC1,4,5,68,16,2,-2,i,15,
O=S(=O)(NCc1ccco1)c1cnc(Cl)c(Br)c1,-6,9,-3,-8,-6,3,i,-12,
CN(CC(=O)Nc1ccc(F)cc1)C(=O)c1cc([N+](=O)[O-])ccc1N1CCOCC1,nt,nt,8,11,-1,1,i,nt,
Cc1cccc(/C=N/Nc2nncc3ccccc23)c1,-2,-4,2,-103,0,-1,i,-18,
C/C=C/C(=O)OCC(=O)Nc1cccc(F)c1,2,-13,-5,-1,-4,2,i,nt,
O=C(NCc1cccnc1)C1CCCN(S(=O)(=O)c2ccc(Cl)cc2)C1 (stereo not drawn),-6,4,-1,-46,11,7,i,-16,
COc1ccc(NC(=O)c2cc(S(=O)(=O)N3CCCCC3)ccc2C)cc1S(=O)(=O)N1CCOCC1,nt,nt,nt,24,-2,-1,nt,8,
Cc1nc(-c2ccc(Cl)cc2)sc1C1(C)CC(c2ccccc2Br)=NO1 (stereo not drawn),nt,nt,12,-8,0,-7,+,-10,
O=[N+]([O-])c1ccc(/C=C/c2ccc3cccc(O)c3n2)cc1,13,2,39,-122,5,-2,i,-13,
CC(NS(=O)(=O)c1c(N)n(C)c(=O)n(C)c1=O)c1ccccc1 (stereo not drawn),-5,4,-6,4,-3,-1,i,-25,
Cc1cc(C)cc(OCC(=O)Nc2cccc(-c3nc4ncccc4o3)c2)c1,1,-3,2,-6,1,-1,i,-2,
C=CCn1c(Oc2ccccc2)nc2c1c(=O)n(C)c(=O)n2C,2,-1,-15,17,-3,0,i,nt,
COCCN(CCOC)C(=O)COC(=O)c1ccc(Cl)c(S(=O)(=O)N(C)c2ccccc2)c1,-8,-3,-3,5,0,0,i,nt,
C(=C/c1ccnc2nc(SC/C=C/c3ccccc3)nn12)/c1ccccc1,-4,-1,21,-5,-4,-2,i,-4,
COc1ccc(C(=O)N[C@H](C(=O)NCc2ccccc2)C(C)C)cc1,-3,2,-5,-8,1,3,nt,-22,
Cc1csc(NC(=O)c2ccc(C)o2)n1,3,16,-16,-6,1,7,i,nt,
Cc1[nH]c(C)c2c(=O)n(Cc3ccccc3Cl)ncc12,nt,nt,nt,12,-2,-2,nt,-18,
COc1ccc(C(=O)O/N=C(\C)c2cnccn2)cc1,-4,-10,-13,4,-3,-3,i,nt,
CC(=O)N1CCN(c2ccc(NC(=O)C(C)Oc3ccc(Cl)cc3Cl)cc2)CC1 (stereo not drawn),-1,0,-18,30,-2,-6,i,-8,
Cc1ccccc1OCC(=O)NN1Cc2ccccc2C1=N,4,6,nt,-78,2,2,i,-7,
CC(C)(C)c1[nH]nc2c1C(C1C=CCCC1)C(C#N)=C(N)O2 (stereo not drawn),-4,-7,1,-380,-1,4,i,-6,
Cc1cc(=O)[nH]c(SCC(=O)NCCc2ccccc2)n1,-1,-7,1,3,-2,1,i,-5,
CCc1nc2c(OCc3cccc(OC)c3)cccn2c1N(C)C(=O)C(C)C,nt,nt,nt,-30,-2,0,nt,-11,
NC(=O)CC(NC(=O)Cc1ccc(Br)cc1)c1ccc(NCCN2CCCCC2)c([N+](=O)[O-])c1 (stereo not drawn),-15,0,-10,20,7,1,i,-13,
Cc1cc(C(=O)N/N=C/c2cccnc2)c(C)o1,0,-3,5,nt,-7,-5,i,nt,
Cc1cccc(CN2CCN(c3nc4nonc4nc3NC3CC3)CC2)c1,?,?,-8,-48,2,3,i,0,
CCOC(=O)Cc1csc(NC(=O)c2cccs2)n1,-5,6,2,-25,-3,-2,i,-9,
CC1CCN(c2[nH]c(=S)c(C#N)c3c2CCCC3)CC1,1,0,-8,-19,-5,-5,i,-7,
CC1Cc2nc(SCC(N)=O)n(C)c(=O)c2S1 (stereo not drawn),0,-2,5,-4,-1,6,i,8,
O=C(Cc1ccccc1)NCc1ccc2c(c1)OCO2,32,1,6,nt,6,1,i,-5,
CCOC(=O)C(CCCCOc1ccc([N+](=O)[O-])cc1)C(=O)OCC,-6,-3,-20,nt,7,1,i,-2,
COc1ccc(CN(C)CC(=O)Nc2cccc(S(N)(=O)=O)c2)c(OC)c1OC,0,0,-11,13,1,-4,i,nt,
O=C(N/N=C/c1ccc(Cl)cc1)C1CC12CCC2 (stereo not drawn),-7,-13,nt,8,-2,2,i,-15,

# A portion of the library (hit frequency here may not be typical).
